LASV entry inh = Lassa virus entry inhibition; Lassa virus pseudotype entry inhibition, cell reporter; control for the full effect not named in the record; 1.2% of 300,000 active; Potency, µM (highest dose often 37.9 µM), for the others: at the top dose activity change, negative = inhibition, hits mostly inhibitors; AID 540256; active means well fitted inhibition curve with a large enough effect; inconclusive means small, poorly fitted or top-dose-only effect, or effect the other way; inactive means flat fitted curve, though single readings scatter; tested in HEK293 cells; note: % is set by controls: 0 for no effect and ±100 for the full control effect; nearly all actives have a fitted effect of over 50% in size; luciferase read-out
MARV entry inh = inhibitors of Marburg virus binding or cell entry; Marburg virus pseudotyped entry inhibition, cell reporter; control for the full effect not named in the record; about a third of the inactives were read at about 46 µM; Potency, µM (titrated, usually from 37.8 µM), inactives show top-dose activity change, negative = inhibition, usual class: inhibitors; 1.8% of 300,000 active; active = well fitted inhibition curve with a large enough effect; inconclusive = small, poorly fitted or top-dose-only effect, or effect the other way; inactive = flat fitted curve, though single readings scatter; tested in HEK293 cells; about a fifth of its hits are not listed in these tables; note: % is set by controls: 0 for no effect and ±100 for the full control effect; luciferase read-out
SARS PLpro yeast = blocks SARS-CoV papain-like protease in a yeast assay. 0.19% of 330,000 active. S. cerevisiae expressing SARS-CoV PLpro, growth rescue; control for the full effect not named in the record. AID 485353. Potency, µM (series often up to 32.9 µM), without a hit: at the top dose activity, positive = growth rescue; note: 0% is about no effect; nearly all actives have a fitted effect of over 55% in size; growth read by luminescence after 48 h
RE007 growth inh = less growth of the S. pombe RE007 Vpr strain | AID 651644 | S. pombe RE007 Vpr strain, BacTiter-Glo ATP luminescence, 24 h; control for the full effect not named in the record | 0.21% of 360,000 active | Potency, µM (top dose mostly 92.2 µM), without a hit: top-dose activity change, negative = less growth; active = well fitted falling curve with a large enough effect; inconclusive = small, poorly fitted or top-dose-only effect; inactive = no such curve, though single readings can be large or run the other way;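 note: % is set by controls: 0 for no effect and ±100 for the full control effect; nearly all actives have a fitted effect of over 50% in size; the assay follows cell death caused by Vpr and the record does not say whether a fall means rescue or toxicity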
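Fission yeast RE007 carrying one integrated HIV-1 vpr copy, seeded at OD 0.01 in PMG+AL medium with 23 nL pinned compound. Grown 24 h at 30 degrees; viability read by BacTiter-Glo luminescence after 5 min.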
NS1 inh = inhibitors of influenza NS1 protein function; S. cerevisiae slowed by influenza A NS1, growth recovery by OD600; Potency, µM (series often up to 46.1 µM), inactives show at the top dose activity, positive = more growth; 0.4% of 270,000 active; AID 2326; note: actives are rising curves; nearly all actives have a fitted effect of over 50% in size
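Compounds were scored for reversing the slow growth caused by influenza A NS1 in S. cerevisiae, measured by optical density at 600 nm. Assay medium contained 2% galactose at pH 6.0; NS1-free yeast of the same strain were the positive control.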
Cruzain inh noDet = blocks cruzain activity in detergent-free assay. P25779. purified cruzain, Z-FR-AMC fluorescence, no detergent. Potency, µM, for the others: max response, negative = inhibition, usual class: inhibitors. 2.3% of 200,000 active. AID 1476; active = well fitted curve in the direction sought with a large enough effect; inconclusive = small, poorly fitted or top-dose-only effect, or another doubt; inactive = no such curve, though single readings can be large; an effect the other way counts as inactive or inconclusive;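 note: plate controls were enzyme without inhibitor for no effect and buffer without enzyme for full effect; nearly all actives have a fitted effect of over 40% in size; top concentration of the series not given in the record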
Target sequence (P25779 123-467 limits assumed): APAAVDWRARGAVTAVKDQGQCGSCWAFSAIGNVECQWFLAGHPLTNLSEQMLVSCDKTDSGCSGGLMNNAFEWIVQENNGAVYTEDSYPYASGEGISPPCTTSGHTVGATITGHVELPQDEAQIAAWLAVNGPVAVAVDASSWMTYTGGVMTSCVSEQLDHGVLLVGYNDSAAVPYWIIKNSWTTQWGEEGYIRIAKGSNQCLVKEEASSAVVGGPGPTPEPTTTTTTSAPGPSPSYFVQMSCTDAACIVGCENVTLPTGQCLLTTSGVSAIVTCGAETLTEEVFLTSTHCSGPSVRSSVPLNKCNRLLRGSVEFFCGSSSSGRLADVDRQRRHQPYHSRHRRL
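Purified cruzain at 1.5 nM, pre-incubated 15 min with compound at room temperature in 100 mM sodium acetate pH 5.5, 5 mM DTT, 0.00005% Triton X-100. Reaction started with 2 uM Z-FR-AMC; AMC fluorescence increase over 60 s gives rate.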
Cruzain inh Det = blocks cruzain activity in presence of Triton detergent | P25779 | purified cruzain, Z-FR-AMC fluorescence, 0.01% Triton | Potency, µM, for the others: max response, negative = inhibition, hits mostly inhibitors | 0.43% of 200,000 active; active = well fitted curve in the direction sought with a large enough effect; inconclusive = small, poorly fitted or top-dose-only effect, or another doubt; inactive = no such curve, though single readings can be large; an effect the other way counts as inactive or inconclusive;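 note: plate controls were neutral wells for no effect and buffer without enzyme for full effect; nearly all actives have a fitted effect of over 40% in size; top concentration of the series not given in the record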
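Purified cruzain (1.5 nM final) was preincubated with compounds for 15 min at room temperature in 100 mM sodium acetate pH 5.5, 5 mM DTT, 0.01% Triton X-100. Reaction started with 2 uM Z-FR-AMC; AMC fluorescence change over 60 s gave activity.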
StopGo reporter = FMDV 2A StopGo reporter, luciferase signal; AID 1159524; 1.2% of 410,000 active; human cells with a luciferase reporter of 2A StopGo recoding; control for the full effect not named in the record; Potency, µM (series often up to 57.9 µM), for the others: top-dose signal change, negative = less light; active = well fitted falling curve with a large enough effect; inconclusive = small, poorly fitted or top-dose-only effect; inactive = no such curve, though single readings can be large or run the other way; tested in HEK293T cells; note: % is set by controls: 0 for no effect and ±100 for the full control effect; nearly all actives have a fitted effect of over 45% in size; luciferase light after 4 h
The depositor's hits bear a star; ? = inconclusive; / = no result given; & = joins results of further samples; [ ] = dose if it differs, or a comment. Unless noted, calls come from the whole dose curve; as a rule, active means well fitted rising curve with a large enough effect; inconclusive means small, poorly fitted or top-dose-only effect; inactive means no such curve, though single readings can be large or run the other way. Potency is the fitted concentration of half-maximal effect. Rows were taken by chance. Share with any hit: about 4.7%.

SMILES | LASV entry inh | MARV entry inh | SARS PLpro yeast | RE007 growth inh | NS1 inh | Cruzain inh noDet | Cruzain inh Det | StopGo reporter
Cc1cc(S(=O)(=O)NCC(c2ccc(F)cc2)N2CCN(C)CC2)ccc1F (stereo not given) | ? | ? | 2% | -2% | / | / | / | -10%
CC(C)c1nc(=S)n(-c2ccccc2)[nH]1 | -9% | 13% | 0% | 1% | 10% | 7% | 0.6% | -12%
O=C(NCC(c1ccco1)N1CCOCC1)c1ccc(C(F)(F)F)cc1 (stereo not given) | -3% | 15% | -1% | 5% | / | / | / | -18%
Cc1nc([N+](=O)[O-])cn1CC(=O)Nc1ccc(Cl)cc1 | 22%[46.1 µM] | -1%[46.1 µM] | -3% | 3% | 11% | / | / | -11%
O=[N+]([O-])c1ccc(OCC(O)CN(C2CCCCC2)C2CCCCC2)cc1 (stereo not given) | -14% | ? | 4% | -4% | -18% | -1% | 0.2% | ?
COc1ccc(OC)c(NS(=O)(=O)c2cc3c(cc2Cl)N(C(C)=O)CCO3)c1 | -3%[46.1 µM] | / | / | / | / | -9% | -6.4% | 40%[activator]
COc1ccc(C(=O)c2cn(Cc3ccccc3OC)c3cc4c(cc3c2=O)OCO4)cc1 | -3%[46.1 µM] | 1%[46.1 µM] | / | / | / | 8% | 0.8% | -1%
Cc1cccc(Nc2nnc(SCC(=O)NC(=O)Nc3ccc4c(c3)OCCO4)s2)c1 | ? | ? | 23% | 8% | 27% | 16µM* | -1.8% | -4%
Cc1cccc(C)c1NC(=O)NC1CCc2ccccc21 (stereo not given) | / | / | 2% | 0% | -1% | / | / | -12%
COc1ccc(CN2C(=O)c3c(c(C)n(C)c3C)C2C(=O)NC2CCC(C)CC2)cc1 (stereo not given) | -27% | -18%[46.1 µM] | 1% | -10% | / | / | / | 4%
COc1ccc(CC(=O)Oc2ccc(F)cc2)cc1 | / | / | -14% | -10% | -5% | / | / | 7%
Fc1cc(NC(=S)NCc2ccc(CNC(=S)Nc3ccc(Cl)c(F)c3)cc2)ccc1Cl | / | / | -1% | 13% | -47% | / | / | 0%
O=C(NCc1ccc(-c2nc3ccccc3s2)cc1)c1cc2ccccc2o1 | 14% | 16% | 14% | -15% | 10% | 13µM* | -2.7% | -9%
COc1ccccc1/C=N/NC(=O)CSc1cc(C)nc2ccccc12 | ? | ? | 1% | 4% | 0% | / | / | -27%
COc1ccc(CNc2nc3ccccc3n2CCN2CCCCC2)c(OC)c1 | -23% | ? | 4% | -6% | -10% | 0% | 4.7% | -1%
Cc1ccc(-n2nnnc2CNC(=O)C(C)C)cc1C | -16%[46.1 µM] | / | / | / | / | -12% | 3.8% | -2%
O=C(CSc1nc(-c2ccccc2Cl)ns1)NCc1ccc2c(c1)OCO2 | 1% | 0% | -17% | -13% | 6% | -5% | -5.7% | -14%
COc1ccccc1CN(C)C(=O)C1(c2ccc(Cl)cc2)CC1 | 4% | ? | -24% | -14% | 0% | 22% | -7.2% | -10%
O=C1C(=O)N(Cc2cccc([N+](=O)[O-])c2)c2ccccc21 | ? | 11µM* | -48% | 16% | -60% | 8% | -4.1% | -20%
CCn1c(=NC(=O)CSC(C)=O)sc2ccccc21 | -40% | -28%[46.1 µM] | -10% | ? | -5% | 4% | 3.3% | 0%
O=Cc1cnc2ccccc2c1-c1ccccc1 | ? | ? | -13% | -6% | -68% | / | / | -9%
CCOc1ccc(-n2c(C)cc(/C=N/Nc3nc(C)cc(=O)[nH]3)c2C)cc1 | -11% | -27%[46.1 µM] | -3% | 3% | 6% | / | / | -22%
COc1ccc(NS(=O)(=O)c2ccc(Cl)c(C(=O)O)c2)cc1S(=O)(=O)N1CCCCC1 | -5% | -1% | 0% | 6% | 10% | / | / | 12%
COC(=O)CSc1nccc(-c2ccc(F)cc2)c1C#N | 3% | 21%[46.1 µM] | -2% | 3% | -6% | / | / | -4%
CCOC(=O)c1[nH]c(C)c(CCC(=O)Nc2ccc(C)cc2Cl)c1C | -2%[46.1 µM] | / | / | / | / | ? | 1.9% | -19%
Cc1cccc(Nc2c(O)nc[nH]c2=O)c1 | -3%[46.1 µM] | -23%[46.1 µM] | / | 2% | / | / | / | -10%
COc1ccc(S(=O)(=O)N2CCN(c3ccc(F)cc3)CC2)cc1C(=O)N1CCCC1 | / | -12%[46.1 µM] | 13% | 6% | -7% | / | / | -11%
COc1ccc(-n2nnnc2SCC(=O)NCc2cccs2)cc1 | 25% | -1%[46.1 µM] | -2% | 7% | -3% | / | / | 6%
COc1ccccc1NS(=O)(=O)c1cccc(C(=O)N2CC(C)OC(C)C2)c1 (stereo not given) | 0% | 13% | 8% | -23% | / | / | / | 4%
O=C(Nc1ccc2c(c1)oc1ccccc12)C1CC1 | 12% | ? | -18% | 3% | -63% | -7% | -3.7% | 28%
CN(Cc1cccnc1)C(=O)CC1C(=O)NCCN1Cc1ccc(-c2ccccc2)cc1 (stereo not given) | ? | 0%[46.1 µM] | 2% | -7% | / | / | / | 0%
CCCc1nc(SCC(=O)N2CCCC2)c2ccccc2n1 | ? | -19% | 10% | -5% | -89% | -3% | 3.8% | ?
CCCc1cc(C(=O)NC2CCCN(Cc3ccccc3F)C2)no1 (stereo not given) | ? | ? | -1% | -2% | -5% | / | / | 20%
C=C1CSc2nc(=O)c3c(C)c(C)sc3n21 | 12% | 17% | 4% | 11% | -7% | -4% | -2.7% | -6%
N#Cc1c(N2CCOCC2)nsc1-c1ccccc1 | ? | 3% | -1% | -9% | -10% | / | / | 25%
Cc1ccc(-n2nc(C)c3c(C)c(CCC(=O)O)c(C)nc32)cc1 | ? | 12% | -2% | 0% | -43% | / | / | 13%
C/C(=N/Oc1nc(C)cc(C)n1)c1ccc(F)cc1 | ? | 20% | -2% | 18% | -33% | -4% | 4.3% | 56%[activator]
Cc1ccc(N2C(=O)NC(=O)/C(=C/c3cnn(-c4ccc(C)cc4)c3)C2=O)cc1 | 17% | ? | 11% | -1% | ? | -2% | -2.0% | ?
CN(c1ccccc1C(N)=O)S(=O)(=O)c1ccccc1 | 5% | 0%[46.1 µM] | 14% | 24% | ? | 13% | -0.5% | 0%
COc1ccc(S(=O)(=O)N2CCN(CC(=O)c3[nH]c(C)c(C(C)=O)c3C)CC2)cc1OC | -13% | 11% | -2% | 22% | / | / | / | -14%
Cc1cc(Nc2ccccc2C(=O)O)nc2nc3ccccc3c(=O)n12 | 1% | 24% | 7% | -14% | -2% | 2% | 1.3% | 6%
CCCOc1ccc(CNC(=O)Cc2cccs2)cc1 | / | / | -3% | 12% | -32% | / | / | 38%[activator]
O=C(O)c1cc([N+](=O)[O-])ccc1N1CCC(Cc2ccccc2)CC1 | 15%[46.1 µM] | ? | -41% | 10% | -27% | -1% | -2.0% | 7%
CCCCc1c(C)nc2cc(-c3ccco3)[nH]n2c1=O | 22% | 9% | 0% | 9% | 0% | / | / | 35%[activator]
Clc1ccc(-c2nnc(C3CCCCC3)o2)cc1 | -5% | 7% | 1% | -15% | -42% | -11% | 2.3% | 46%[activator]
CCC(C)NC(=O)CCC(=O)NNc1nc2ccccc2c2nc(C)nn12 (stereo not given) | 5%[46.1 µM] | ? | 8% | 6% | -8% | ? | 0.8%&-2.2% | -20%&-9%
O=C(O)CCCC(=O)Nc1ccc(-n2ccc(C(F)(F)F)n2)cc1 | / | / | -2% | 4% | 2% | / | / | 0%
COc1cccc(N(C(=O)Cn2nnc(-c3cccs3)n2)C(C(=O)NC2CCCCC2)c2ccncc2)c1 (stereo not given) | -2% | 1% | -9% | 13% | 18% | -22% | 6.8% | -2%
Cn1c(SCC(=O)NC2CCCCC2)nnc1-c1ccccn1 | / | / | -4% | 1% | 3% | / | / | -14%
CC(=O)N(CN1C(=O)c2ccccc2C1=O)c1cccc(C)c1 | 15% | 18% | -1% | 2% | 2% | -4% | -0.8% | -2%
Cc1cc(NC(=O)CN2CCCCC2C)no1 (stereo not given) | -9% | 10% | 6% | 9% | -5% | -1% | 4.8% | 15%
O=S(=O)(c1cccc(C(F)(F)F)c1)N1CCC(O)(c2cccnc2)CC1 | 7% | 15% | 4% | 2% | -1% | 14% | -2.6% | 3%
CCC(CC)Nc1ccc(C(CC(N)=O)NC(=O)Cc2ccc(Br)cc2)cc1[N+](=O)[O-] (stereo not given) | / | / | 0% | 3% | 1% | / | / | 0%
Cc1ccccc1Cn1c(=O)n(CCc2ccccc2)c(=O)c2c(C)c(C)sc21 | 12%[46.1 µM] | 0%[46.1 µM] | / | / | / | -13% | -3.3% | -11%
CC1CCN(S(=O)(=O)c2ccc3c(ccc(=O)n3CC(=O)NCc3ccccc3)c2)CC1 | 15%[46.1 µM] | / | / | / | / | -2% | -4.1% | -13%
Cc1sc2ncnc(SCC(=O)NC3CCCC3)c2c1C | ? | 5%[46.1 µM] | -2% | 45% | 10% | / | / | -28%
COc1cc(C(=O)NNC(=O)CCOc2ccccc2)cc(OC)c1OC | 3% | -10% | 3% | 9% | / | / | / | 3%
Cc1ccc(C(c2nnnn2C2CCCC2)N2CCN(c3nc4ccccc4s3)CC2)cc1 (stereo not given) | ? | 2%[46.1 µM] | / | 29% | / | / | / | -6%
O=C(Cn1ncn2nc(-c3ccccc3)cc2c1=O)NCc1ccccn1 | / | / | -5% | -6% | 0% | / | / | 14%
COc1ccccc1CCNC(=O)C(=O)NCC1OCCN1S(=O)(=O)c1cc(F)ccc1F (stereo not given) | / | / | 3% | 8% | 3% | / | / | -19%

The list continues:
SMILES | LASV entry inh | MARV entry inh | SARS PLpro yeast | RE007 growth inh | NS1 inh | Cruzain inh noDet | Cruzain inh Det | StopGo reporter
CC(=O)c1cc(C#N)c(N(C)Cc2ccccc2)nc1C | 0% | -27%[46.1 µM] | 0% | 24% | -11% | / | / | -24%
N#C/C(=C\c1cn(Cc2ccccc2F)c2ccccc12)C(=O)NCc1ccco1 | -24% | ? | -5% | -4% | 13% | -3% | -3.5% | -12%
COC(=O)c1cccc(-n2[nH]nnc2=S)c1 | 4% | -10% | 1% | ? | -11% | -16% | -12% | -15%
Cc1ccccc1Cn1cc(NC(=O)COc2ccccc2)cn1 | 6% | ? | -1% | -8% | -16% | -2% | 4.6% | -5%

Bioassay records (PubChem)
